Assay outcomes as filed in PubChem BioAssay.
Choline anaer gr = choline-fed anaerobic bacterial growth inhibition. calls only. Gram-negative bacterium anaerobic choline minimal medium, absorbance growth; active compounds read low; many inactives read as strong as hits in the columns shown. 0.2% of 55,000 active;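 active = growth z-score on choline under -2 at 7 or 20 h with little or no fall on glycerol, limits in tiers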;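 also: stock transfer was 300 nL into about 50 µL; the organism is E. coli; final concentration not given here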
Choline anaer gr early = recorded beside Choline anaer gr, whose call it bears; z-score; measured here: choline growth z-score, timepoint 1;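 score of optical density at 7 h as mean of two plates; lower means less growth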
An asterisk follows results filed as active; i = inactive; & = joins results of further samples. Some of the compounds tested. The share of hits here may be higher or lower than overall.

cpd	compound	Choline anaer gr	Choline anaer gr early
1	Cc1nc2ccc(CN(C)c3ccc(C(=O)N[C@@H](CCC(=O)O)C(=O)O)s3)cc2c(=O)[nH]1	i	-0.04
2	Cc1ccc(C)c(NC(=O)c2nccnc2C(=O)O)c1	i	-0.83
3	Cc1ccc2oc(-c3nnc(C(=O)NCCN(C)C)o3)c(C)c2c1	i	-3
4	CCCN1C(=O)c2ccccc2Sc2cc(NC(=O)CCc3c[nH]c4ccccc34)ccc21	i	0.26
5	CCn1nc(C)c2c1c(=O)n(CCc1ccccc1)c(=O)n2CC(=O)NC(C)CCc1ccccc1 (stereo not given)	i	1.7
6	CCc1ccc(-n2ncc(-c3cc(C(=O)NC(C)C)c4ccccc4n3)c2C)cc1	i	-0.84
7	CCC1CCCCN1S(=O)(=O)c1ccc(-c2onc(C)c2C)s1 (stereo not given)	i	-0.87
8	Cn1cnc(S(=O)(=O)N2CCN(c3ccc(N4CCOCC4)nn3)CC2)c1	i	0.47
9	CCCn1c(SCc2nc(-c3ccc(F)cc3)no2)nc2cc3c(cc2c1=O)OCO3	i	-0.13
10	Cc1[nH]c2ccc(C(=O)N3CCCC3)cc2c1C	i	0.4
11	COc1ccc(CC(=O)N(Cc2nc3nc(C)cc(C)n3n2)c2ccc(C)cc2)cc1	i	1.4
12	Cc1ccc(-c2noc(-c3ccccc3S(=O)(=O)Nc3ccc(S(N)(=O)=O)cc3)n2)cc1	i	-0.36
13	O=c1n(CC2CCCO2)nc2ccc(S(=O)(=O)N3CCSCC3)cn12 (stereo not given)	i	0.49
14	Cc1ccc(C)c(-c2cc(-c3nc(-c4ccc5c(c4)OCO5)no3)[nH]n2)c1	i	-1
15	O=c1nc(SCc2ccccc2)c2c(n1CCc1ccccc1)CCC2	i	0.92
16	O=S(=O)(c1ccc(-n2cccn2)cc1)N1CC=C(c2ccccc2)CC1	i	0.71
17	O=S1(=O)C[C@H](N2CCC3(CC2)OCCO3)[C@@H](S(=O)(=O)c2cccs2)C1	i	-0.41
18	COC(=O)c1c(C)[nH]c(C(=O)N2CCC(CC(=O)N3CCN(c4ccccn4)CC3)CC2)c1C	i	0.73
19	CCOc1ccc(-c2[nH]ncc2CN2CCCC2c2c(C)noc2CC)cc1 (stereo not given)	i	-0.18
20	COc1cc(OC)c(NC(=O)c2cccc(-c3noc(C)n3)c2)cc1Cl	i	0.93
21	COC(=O)c1cc2nc(-c3ccccc3)cc(C)n2n1	i	-1.2
22	CCOC(=O)c1c(C)c(S(=O)(=O)N2CCCCC2)c(C)n1CC	i	0.48
23	Cc1ccc(C(=O)N2CCN(c3cc(=O)n4nc(-c5ccccc5)sc4n3)CC2)cc1	i	0.73
24	COc1ccc(CN2CCN(Cc3ccccc3OC)CC2)c(OC)c1	i	0.39
25	CC1CCCN(c2c(-c3ccccc3)c(=O)c2=O)C1 (stereo not given)	i	-0.58
26	O=c1[nH]c(=S)[nH]c(-c2ccccc2)c1Cc1c(O)ccc2ccccc12	i	0.24
27	COc1cccc(-c2csc(Cc3nc(-c4ccc(Br)cc4)no3)n2)c1	i	1.1
28	COc1ccc(-c2ccc(SCc3nc(-c4ccccc4)no3)nn2)cc1OC	i	0.1
29	COC(=O)c1cc(S(=O)(=O)N2CC=C(c3ccccc3)CC2)c[nH]1	i	-0.76
30	O=C1CC(c2cc(Br)ccc2F)c2cnn(-c3ccc(F)cc3)c2N1 (stereo not given)	i	-0.89
31	CCn1c(SCc2nc(-c3ccccc3Cl)oc2C)nc2c(=O)[nH]cnc21	i	-0.39
32	Cc1ccc(S(=O)(=O)N2CCN(c3cc(=O)n4nc(-c5ccccc5)sc4n3)CC2)c(C)c1	i	-0.21

Given in transposed form: entries from further up.
[29] COC(=O)c1cc(S(=O)(=O)N2CC=C(c3ccccc3)CC2)c[nH]1
[32] Cc1ccc(S(=O)(=O)N2CCN(c3cc(=O)n4nc(-c5ccccc5)sc4n3)CC2)c(C)c1
[31] CCn1c(SCc2nc(-c3ccccc3Cl)oc2C)nc2c(=O)[nH]cnc21

entry no.,29,32,31
Choline anaer gr,i,i,i
Choline anaer gr early,-0.76,-0.21,-0.39

(listing goes on)
cpd	compound	Choline anaer gr	Choline anaer gr early
33	CCCc1cc(=O)[nH]c(-n2nc(C)cc2NC(=O)C2CC(=O)N(c3ccc(C)c(C)c3)C2)n1 (stereo not given)	i	1.8
34	Cc1ccc(-c2cc(C(=O)NCCCN(C)C)c3ccccc3n2)cc1	i	-0.69
35	COc1ccc(CCC(=O)N(C)CCc2noc(C(=O)NCc3ccccc3)n2)cc1	i	-0.43
36	Cc1nc(-c2cc(S(=O)(=O)NCc3ccccc3)c(C)s2)sc1C	i	-0.53
37	Cc1nn(-c2ccc3nnc(C)n3n2)c2c1C(c1cccc(OCc3cccc(Cl)c3)c1)CC(=O)N2 (stereo not given)	i	-0.93
38	CCOC(=O)C1CCN(c2c(C(=O)c3ccccc3)cnc3ccc(Cl)cc23)CC1	i	-1.6
39	Cc1ccccc1C1CCCN1C(=O)c1c(C)noc1C (stereo not given)	i	-0.81
40	CCOC(=O)c1sc(-n2[nH]c(C)c(Cc3ccc(C)cc3)c2=O)nc1C	i	-0.74
41	O=C(Nc1cc(F)ccc1F)c1nc2ccccc2nc1N1CCCC1	i	0.32
42	COc1cc(C(C)=O)ccc1O	i	-0.23
43	CN(C)C(=O)c1ccc2c(c1)n(C)c(=O)n2C	i	0.63
44	CCCCNC(=O)c1cccc(N2CCCS2(=O)=O)c1	i	-2.1
45	Cc1ccc(S(=O)(=O)c2c(C(=O)N3CCCCC3)cnc3ccccc23)cc1	i	-0.05
46	CN1C(=O)C(CC(=O)NCCc2ccc(Cl)cc2)Sc2ccc(S(=O)(=O)N(C)C)cc21 (stereo not given)	i	0.72
47	CC(C)C(=O)NC1CCN(C(=O)C2CCC2)C1 (stereo not given)	i	0.02
48	CCCNC(=O)c1cc2cc3ccc(OC)c(Cl)c3nc2s1	i	0.26
49	COc1ccc(-c2cnn3c(C)cc(C)nc23)cc1S(=O)(=O)NC(C)c1ccccc1 (stereo not given)	i	0.25
50	CCOC(=O)c1cnn(CCOC(=O)CC)c1NC(=O)CC	i	-0.1
51	Cc1cc(F)ccc1NC(=O)C1Oc2ccccc2NC1=O (stereo not given)	i	-1.6
52	Cc1ccc(C)c(NC(=O)c2ccc(=O)n(Cc3ccc(F)cc3)c2)c1	i	-0.01
53	CCNC(=O)C1CCCN(c2nc3ncn(CC(=O)Nc4ccccc4)c(=O)c3s2)C1 (stereo not given)	i	2.6
54	O=S(=O)([O-])CCC[n+]1c(/C=C/c2ccccc2)sc2ccccc21	i	-0.58
55	O=C(NCCC1=CCCCC1)c1ccc(CN2C(=O)CCn3nc(-c4ccc(Cl)cc4)cc32)cc1	i	0.92
56	CC[C@H](C)C(=O)O[C@H]1CCC=C2C=C[C@H](C)[C@H](CC[C@@H]3C[C@@H](O)CC(=O)O3)[C@H]21	i	0.61&1.1&0.22&0.32
57	Cc1cnc2c(c1SCCC(C)C)c(=O)n(C)c(=O)n2C	i	-0.25
58	COc1ccc(OCc2nn3c(-c4ccc(OC)cc4)nnc3s2)cc1	i	-0.06
59	CC(C)(C)Sc1ccc2nn(CC(=O)NC3CCCCC3)c(=O)n2n1	i	0.01
60	Cc1cc(N(C)C)nc(N2CCN(C(=O)c3ccc(Br)cc3)CC2)n1	i	0.29
61	CC(C)C(N)C(=O)N1CCc2ccccc21 (stereo not given)	i	-1.6
62	CN(C)C(CNC(=O)c1cc(=O)c2cc(Br)ccc2o1)c1ccc(C(C)(C)C)cc1 (stereo not given)	i	0.68
63	O=C(Nc1ccc(-c2cn3c(C(=O)N4CCOCC4)csc3n2)cc1)C1CC1	i	-0.21
64	NC(=NCc1ccc(Cl)cc1Cl)NC(=O)c1nc(Cl)c(N)nc1N	i	-0.13

Four compounds from above, sorted by formula weight, lowest first:
cpd	compound	Choline anaer gr	Choline anaer gr early
61	CC(C)C(N)C(=O)N1CCc2ccccc21 (stereo not given)	i	-1.6
64	NC(=NCc1ccc(Cl)cc1Cl)NC(=O)c1nc(Cl)c(N)nc1N	i	-0.13
63	O=C(Nc1ccc(-c2cn3c(C(=O)N4CCOCC4)csc3n2)cc1)C1CC1	i	-0.21
60	Cc1cc(N(C)C)nc(N2CCN(C(=O)c3ccc(Br)cc3)CC2)n1	i	0.29

Further entries
cpd	compound	Choline anaer gr	Choline anaer gr early
65	Cc1c(NC(=O)c2ccc(Cl)cc2)c(-n2cnnc2)nn1C	i	0.63
66	CCOC(=O)c1ccc2nc(NC(=O)c3ccc4c(c3)OCCO4)sc2c1	i	0.51
67	CCC(C)N[C@H]1CS(=O)(=O)C[C@@H]1S(=O)(=O)c1ccc(F)c(C)c1 (stereo not given in full)	i	0.39
68	O=C1CCCN1c1ccc(CN2CC(=O)N(Cc3ccccc3F)c3ccccc3S2(=O)=O)cc1	i	0.54
69	Fc1cc(F)cc(-c2nnc3ccc(Cl)nn23)c1	i	-0.95
70	COc1ccc(CSc2nc(N)c3c4c(sc3n2)CCCC4)cc1	i	1.6
71	COc1cccc(Cn2c(C)c(C3=CCN(S(=O)(=O)c4c(C)nn(C)c4C)CC3)c3ccccc32)c1	i	0.93
72	Cc1cc(C)c2c(c1)C(Cc1ccc(C(C)C)cc1)C(=O)N2 (stereo not given)	i	0.74
73	O=S(=O)(c1cc(-c2nnc(-c3ccc(F)cc3)o2)ccc1Cl)N1CCCC1	i	-0.45
74	O=S(=O)(c1ccc(-c2noc(-c3ccc(Br)cc3)n2)cc1)N1CCOCC1	i	-0.16
75	Cc1ccc(C(=O)Nc2ccc3c(c2)CCC(=O)N3)cc1	i	0.29
76	CC(=O)NC1CCN(C(=O)C2CCCC2)C1 (stereo not given)	i	0.12
77	CCOC(=O)NC[C@H](Cc1ccc(OCCc2nc(-c3ccccc3)oc2C)cc1)N/C(C)=C\C(=O)c1ccc(C(F)(F)F)cc1	i	-0.2
78	Brc1cccc(-c2ccc(SCc3nc(-c4ccc5c(c4)OCO5)no3)nn2)c1	i	0.33
79	CS(=O)(=O)Nc1cc(C(=O)O)ccc1N1CCCC(CN2CCCC2)C1 (stereo not given)	i	-0.79
80	CCOc1ccccc1NS(=O)(=O)c1ccccc1-c1nc(-c2ccc(F)cc2)no1	i	1.2
81	Cc1nn2c(=O)cc(COc3ccc(C)c(C)c3)nc2s1	i	-0.77
82	CN(CCc1ccccn1)c1ncnc2c1CCC2	i	-2.5
83	NCCCNCCCCNCCCN	i	0.29
84	COc1ccc(-c2nc3ccccc3c3nnc(SCC(N)=O)n23)cc1	i	-1.5
85	Cc1ccc(-n2c(=O)c3cccnc3n2CC(=O)Nc2ccc(Br)cc2)cc1C	i	-0.74
86	COc1ccc(NC(=O)N2CCCN(c3nc4cc(Br)ccc4n4cccc34)CC2)cc1	i	-1.4
87	Cc1ccc(C2CCCCCN2S(=O)(=O)c2ccc(Br)s2)s1 (stereo not given)	i	3.4
88	O=S(=O)(c1ccc2[nH]c3c(c2c1)CCCCC3)N1CCc2ccccc2C1	i	1.1
89	COc1ccc(-c2noc(N3CCC(C(=O)Nc4ccc(F)cc4)CC3)n2)cc1	i	0.43
90	CC(C)(C)C(=O)OCOC(=O)[C@@H]1N2C(=O)[C@@H](NC(=O)[C@H](N)c3ccccc3)[C@H]2SC1(C)C	i	0.57
91	C#C[C@]1(O)CC[C@H]2[C@@H]3CCC4=Cc5oncc5C[C@]4(C)[C@H]3CC[C@@]21C	i	-0.35&0.17
92	Cn1c(=O)n(CC(=O)N2CCCC2)c(=O)c2cc(S(=O)(=O)N3CCc4ccccc43)ccc21	i	0.84
93	Cc1cccc(NC(=O)c2cnc(N3CCN(c4ncccn4)CC3)c3ccccc23)n1	i	1
94	CC(C)(C)c1ccc(-c2nc3nc(CN4CCc5ccccc5C4)cc(=O)n3[nH]2)cc1	i	0.37
95	Cc1ccc(Oc2ccc(-c3noc(CCNS(=O)(=O)c4ccc(C)cc4)n3)cc2)cc1	i	2
96	Cc1cccc(NC(=O)COc2ccccc2-c2nc(-c3ccccc3)no2)c1C	i	0.16
97	COc1ccc(CN2CCN(Cc3ccc4c(c3)OCO4)CC2)cc1	i	0.31
98	O=C(Cn1ccn2nc(-c3ccc4c(c3)OCO4)cc2c1=O)N1CCCc2ccccc21	i	-0.12
99	Cc1cc(C)n2ncc(-c3ccc(C)c(S(=O)(=O)NCc4ccc5c(c4)OCO5)c3)c2n1	i	-1.3
100	O=S(=O)(c1cc(-c2nc(-c3ccc(Cl)cc3)no2)cs1)N1CCCC1	i	-1.3
101	Cc1cc(C)c(NS(=O)(=O)c2cc(-c3nc(C)cs3)sc2C)c(C)c1	i	1.5
102	Cc1nc(-c2csc(S(=O)(=O)N3CCCC(C(=O)NC(C)C)C3)c2)no1 (stereo not given)	i	0.14
103	Cn1c(SCCOc2ccccc2Cl)nnc1-c1ccc2c(c1)OCCCO2	i	0.15
104	CCn1ccc2cc(S(=O)(=O)N3CCCC(C(=O)N4CCc5ccccc5C4)C3)ccc21 (stereo not given)	i	0.27
105	O=c1[nH]c(-c2cccc(O)c2)nc2sc3c(c12)CCCC3	i	-0.39
106	COc1ccc(N2CCN(C(=O)N3c4ccccc4Sc4ccccc43)CC2)cc1	i	1.1
107	O=c1c2ccccc2n2c(-c3cc(Cl)ccc3O)nnc2n1Cc1ccccc1	i	1.2
108	Cc1cccc(NC(=O)C2CCN(Cc3noc(-c4ccc(F)cc4)n3)CC2)c1	i	-0.8
109	Cc1cccc(-c2noc(-c3cn(CC(=O)NCc4ccc(F)cc4)c4nc(C)ccc4c3=O)n2)c1	i	0.34
110	Cn1c(=O)n(CCN2CCOCC2)c(=O)c2c1nc1n2CCCN1C1CCCCC1	i	0.99
111	CCCn1c(C)ccc(-c2noc(CCCC(=O)Nc3nccs3)n2)c1=O	i	0.46
112	Cc1cc2oc(C(=O)Nc3sc4c(c3C(=O)NCC3CCCO3)CCC4)cc(=O)c2cc1C (stereo not given)	i	0.85
